CtBP-E1A inh = inhibitors of CtBP/E1A interaction | AlphaScreen GST-E1A/His-CtBP binding, 1536-well; active compounds read low; control for the full effect not named in the record | activity change, % (concentration not given with the values) | 340,000 tested, 0.49% active; in the data active means activity change below about -65%; inconclusive means about -30% to -65%; inactive means above about -30%; also: % is scaled to controls: 0 for no effect and ±100 for the full control effect
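Protein mix (5X: 125 nM each GST-E1A, His-CtBP) was incubated with pinned compound 2 h at 37 deg C in dark, in 50 mM Tris pH 8.0 buffer with 300 mM NaCl. Glutathione donor and nickel acceptor beads followed; AlphaScreen signal read after 1 h.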
Six1-Eya2 blk = blocks human Six1 binding to Eya2; Q15475+O00167; AlphaScreen GST-Six1/His-Eya2 binding, biochemical; active compounds read low; control for the full effect not named in the record; activity change, % (test concentration not listed); 360,000 tested, 0.56% active; in the data active = activity change below about -65%; inconclusive = about -30% to -65%; inactive = above about -30%; also: % is scaled to controls: 0 for no effect and ±100 for the full control effect
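AlphaScreen luminescence read after one hour at 37 °C in darkness. Pin-transferred compounds met GST-Six1 and His-Eya2 protein (5X stock 250 nM/500 nM) plus glutathione donor and Ni-chelate acceptor beads (5X, 50 ug/mL).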
PINK1 modulator = PINK1 expression modulation; PINK1 immunofluorescence, high-content cytometry, 24 h; Potency, µM (doses to about 76.6 µM), inactives show top-dose activation (PINK1 increase), hits mostly activators; 410,000 tested, 0.2% active; active = well fitted activation curve with a large enough effect; inconclusive = small, poorly fitted or top-dose-only effect; inactive = flat fitted curve, though single readings scatter; cell line not stated here;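 also: potency is read from the fitted curve at half-maximal effect; % of control where 0% means no effect; nearly all actives have a fitted effect of over 65% in size; a mitochondrial uncoupler was the plate control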
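PINK1 protein level read as immunofluorescence by microplate cytometer in a fixed, stained stable cell line after 24 h exposure to five compound concentrations, with CCCP as control.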
D2 PAM = positive allosteric modulators of human D2 dopamine receptor; P14416; DiscoveRx D2 beta-arrestin cells, luminescence, 90 min; 100% = 57 uM dopamine signal; potentiation, % (concentration not given with the values); 360,000 tested, 0.23% active; AID 624464; active = potentiation of 50% or more; inconclusive = 30% to 50%; inactive = 30% or less;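 also: compound concentration not given in the record; tested on top of an EC20 dose of dopamine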
Target sequence (P14416 whole entry, looked up): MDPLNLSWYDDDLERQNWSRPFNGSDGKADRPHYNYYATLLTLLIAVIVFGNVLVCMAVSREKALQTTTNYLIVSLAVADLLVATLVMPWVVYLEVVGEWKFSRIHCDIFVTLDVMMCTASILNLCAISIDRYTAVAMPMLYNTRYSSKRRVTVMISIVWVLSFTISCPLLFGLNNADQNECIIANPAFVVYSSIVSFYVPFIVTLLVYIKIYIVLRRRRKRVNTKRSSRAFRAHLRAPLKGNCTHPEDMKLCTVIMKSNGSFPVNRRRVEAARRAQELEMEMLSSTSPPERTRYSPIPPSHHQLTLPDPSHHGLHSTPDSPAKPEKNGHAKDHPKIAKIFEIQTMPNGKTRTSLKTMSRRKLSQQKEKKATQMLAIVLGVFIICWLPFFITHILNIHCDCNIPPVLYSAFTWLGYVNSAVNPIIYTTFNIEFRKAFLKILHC
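PathHunter beta-arrestin assay in DiscoveRx D2 cells. Compounds were added with an EC20 of dopamine (50 nM final) for 90 min at 37 deg C. Luminescence was read 1 h after detection reagent, with 57 uM dopamine as the EC100 control.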
TRPML1 ag = human mucolipin-1 channel agonism | 410,000 tested, 0.12% active | TRPML1-expressing cells, Ca2+ dye fluorescence, FDSS; host cell line not named in the record; reference of the full effect not given here | Q9GZU1 | activation, % (concentration not given with the values); in the data active = activation above about 50%; inconclusive = about 30% to 50%; inactive = below about 30%; also: 0% is about no effect; the text of the record puts the active cut at 80%
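In this qHTS format, compounds were pin-transferred onto Ca8-dye-loaded TRPML1-DL cells induced with Tet overnight, and intracellular Ca2+ fluorescence was recorded kinetically for 110 s after a 10 s baseline. A subsequent 4uM final 54-4 (EC80) addition followed by a second 110 s read served as the antagonist phase.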
D2 agonist = activates the human D2 dopamine receptor; AID 624465; P14416; 360,000 tested, 0.084% active; DiscoveRx PathHunter D2 beta-arrestin, luminescence, 90 min; 100% = 57 uM dopamine signal; activation, % (test concentration not listed); in the data active = activation above about 40%; inconclusive = about 15% to 40%; inactive = below about 15%; also: compound concentration not given in the record; the text of the record calls up to 30% inactive
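DiscoveRx PathHunter D2 beta-arrestin cells (2,100/well) attached overnight, then compound-stimulated 90 min at 37 C in HBSS/10 mM HEPES/0.1% Tween-20 buffer; beta-galactosidase complementation read by luminescence after 1 h at ambient temperature. Dopamine 57 uM final (EC100) as control.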
* marks the source's active call; other numbers are inactive results; ? = inconclusive; . = no result given; & = joins results of further samples; [ ] = remark or other dose.

No.	Structure	D2 agonist	Six1-Eya2 blk	TRPML1 ag
1	O=C(NCC1(O)CCCCC1)C1CCC(=O)N(Cc2ccccc2F)C1 (configuration not stated)	-2.6	-2.2	1.1
2	Cc1ccc(C(=O)C2CCOC(C)(C)C2)cc1 (configuration not stated)	-3.1	-7.6	0.5
3	CC1CCOC2(O1)C(=O)N(CN1CCN(c3cccc(Cl)c3)CC1)c1ccccc12 (configuration not stated)	-2.2	-1.0	0.0
4	O=C1CC(c2ccccc2)CC2=C1CN(C1CCCCC1)CN2 (configuration not stated)	1.5	2.7	0.1
5	CCCCOCCCNC(=O)N[C@@H](CCSC)C(=O)OC	-0.8	5.8	0.5
6	Cc1ccccc1S(=O)(=O)Cc1ccc(C(=O)NCCCOC(C)C)o1	-2.7	20.5	0.2
7	Nc1cc(N)nc(SCC(=O)NNC(=O)c2ccc(Cl)cc2)n1	-1.2	2.1	-0.4
8	Nc1nc(Nc2ccc(Cl)cc2)c(NC=O)c(=O)[nH]1	-3.3	-9.1	0.8
9	Cc1cccc(C(=O)N2CCC(c3nc4ccccc4s3)CC2)c1	3.5	-9.6	0.3
10	CCNC(=O)NC(=O)COC(=O)CCCc1nc2ccccc2s1	-5.2	0.9	-0.8
11	CC(Oc1ccc(Cl)cc1Cl)c1nc(-c2ccc(NC(=O)c3cccnc3)cc2)no1 (configuration not stated)	2.6	6.6	2.2
12	COc1ccc(NC(C)=O)cc1S(=O)(=O)Nc1ccccc1C(=O)N1CCCC1	-0.3	3.5	-1.2
13	O=C(c1ccc(CN2CCOCC2)cc1)N1CCC(Cc2ccccc2)CC1	-5.8	-3.6	-0.8
14	C/C(=C/c1oc2ccc(O)cc2c1[N+](=O)[O-])N(C)C	-4.6	-12.6	0.5
15	Cc1ccc(S(=O)(=O)N2CCN(C(=O)CCOc3ccccc3C)CC2)cc1C	0.2	-4.7	0.9

No.	D2 PAM	CtBP-E1A inh	PINK1 modulator
1	-4.1	-12.6	-1.2%
2	-4.3	.	-0.2%
3	-37.7	1.7	-1.5%
4	1.2	3.8	1.5%
5	5.2	3.2	-4.0%[38.3 µM]
6	1.5	8.1	1.1%
7	2.5	-3.4	-22.2%[38.3 µM]
8	-11.2	-17.6	0.4%
9	-12.5	.	2.2%
10	-36.9	-0.4	0.1%
11	3.6	0.0	12.2%
12	0.7	-7.4	1.2%
13	-8.1	1.7	-1.3%
14	-6.2	0.1	2.3%
15	-16.6	6.2	0.0%

The listing continues.
No.	Structure	D2 agonist	Six1-Eya2 blk	TRPML1 ag
16	COCCCNC(=O)CN1C(=O)CSc2ncccc21	-0.2	9.0	-0.1
17	CCc1ccc(C2C3=C(CC(C)(C)CC3=O)Nc3c2c(=O)[nH]c2nc(C)nn32)cc1 (configuration not stated)	-4.3	-2.2	-0.5
18	CCOC(=O)N1CCN(S(=O)(=O)c2ccc(C)cc2)C1c1ccc(OC)cc1 (configuration not stated)	-2.7	4.1	0.9
19	CC/C(=N\N=C1\SC(C)C(=O)N1Cc1ccco1)c1ccccc1 (configuration not stated)	-0.8	1.4	4.0
20	c1csc(-c2nnc(COc3ncnc4sccc34)o2)c1	-5.0	-1.7	-0.6
21	CC(=O)c1ccc(NC(=O)c2ccn[nH]2)cc1	-1.4	-1.7	0.1
22	CC(=O)OCC(=O)[C@@]1(O)CC[C@H]2[C@@H]3CCC4=CC(=O)CC[C@]4(C)[C@H]3[C@@H](O)C[C@@]21C	4.4&-3.7	5.2&2.1	0.2&0.0
23	CSc1ncccc1C(=O)OCC(=O)c1ccccc1Br	-5.4	30.0	4.8
24	COc1ccc(C)cc1NC(=O)CSc1nnc(-c2ccccn2)n1Cc1ccco1	-0.5	-17.0	0.1
25	CCCCCNC(=O)c1cccnc1SCC(=O)Nc1ccccc1OC	0.2	-0.6	0.0
26	COC(=O)c1scc(C)c1NC(=O)CSc1ccc(Cl)cc1	2.9	11.5	0.6
27	COCCCNC(=S)N1CCCN(c2nc3cc(C)c(C)cc3cc2C#N)CC1	1.1	20.5	?
28	O=C(O)c1ccc(-n2cccn2)nc1	-3.5	0.6	-0.3
29	CCC(C)NC(=O)C1=CCN(S(=O)(=O)c2ccc(C)cc2)CC1 (configuration not stated)	1.3	-0.4	0.5
30	Cc1ccc(N(CC(=O)NCc2ccco2)C(=O)CCC(=O)Nc2nccs2)c(C)c1	-4.6	4.1	-0.5

No.	D2 PAM	CtBP-E1A inh	PINK1 modulator
16	-6.6	-9.2	-0.1%
17	-3.9	-5.5	?
18	5.8	3.4	1.0%
19	-6.4	1.1	-2.2%
20	-8.2	.	0.5%
21	-7.3	-9.8	-2.0%
22	-8.1&0.2	6.9&10.5	0.7%&0.4%
23	3.2	3.1	0.4%
24	1.6	-14.5	-3.3%
25	-18.5	3.4	1.4%
26	0.4	11.2	7.7%
27	-20.3	35.3	-1.9%
28	-3.0	-7.8	0.9%
29	4.0	9.9	1.5%
30	-2.9	2.9	0.8%

Continued:
No.	Structure	D2 agonist	Six1-Eya2 blk	TRPML1 ag
31	Cc1cccc(CN2CCN(CC(=O)O)C2=O)c1	-0.4	1.3	-0.3
32	CN(CCCC1CCCC1)C(=O)c1cc(COc2c(F)cccc2F)on1	-0.4	38.8	2.6
33	CC(C)c1cccc(C(C)C)c1OCCCCN1CCCC1	-1.3	1.1	0.2
34	O=C1C(=O)N(CCCN2CCOCC2)C(c2ccc(F)cc2)/C1=C(\O)c1ccc2c(c1)OCCO2 (configuration not stated)	2.0	-0.5	-0.1

No.	D2 PAM	CtBP-E1A inh	PINK1 modulator
31	-5.1	14.9	0.4%[38.3 µM]
32	-4.3	-16.1	2.9%
33	-21.7	4.5	2.3%[38.3 µM]
34	-5.4	0.9	0.3%

Gathered by group: the compounds so far containing four or more nitrogen atoms.
No.	Structure	D2 agonist	Six1-Eya2 blk	TRPML1 ag
7	Nc1cc(N)nc(SCC(=O)NNC(=O)c2ccc(Cl)cc2)n1	-1.2	2.1	-0.4
8	Nc1nc(Nc2ccc(Cl)cc2)c(NC=O)c(=O)[nH]1	-3.3	-9.1	0.8
11	CC(Oc1ccc(Cl)cc1Cl)c1nc(-c2ccc(NC(=O)c3cccnc3)cc2)no1 (configuration not stated)	2.6	6.6	2.2
17	CCc1ccc(C2C3=C(CC(C)(C)CC3=O)Nc3c2c(=O)[nH]c2nc(C)nn32)cc1 (configuration not stated)	-4.3	-2.2	-0.5
20	c1csc(-c2nnc(COc3ncnc4sccc34)o2)c1	-5.0	-1.7	-0.6
24	COc1ccc(C)cc1NC(=O)CSc1nnc(-c2ccccn2)n1Cc1ccco1	-0.5	-17.0	0.1
27	COCCCNC(=S)N1CCCN(c2nc3cc(C)c(C)cc3cc2C#N)CC1	1.1	20.5	?
30	Cc1ccc(N(CC(=O)NCc2ccco2)C(=O)CCC(=O)Nc2nccs2)c(C)c1	-4.6	4.1	-0.5

No.	D2 PAM	CtBP-E1A inh	PINK1 modulator
7	2.5	-3.4	-22.2%[38.3 µM]
8	-11.2	-17.6	0.4%
11	3.6	0.0	12.2%
17	-3.9	-5.5	?
20	-8.2	.	0.5%
24	1.6	-14.5	-3.3%
27	-20.3	35.3	-1.9%
30	-2.9	2.9	0.8%
